# D2 PAM – human D2 receptor positive allosteric modulation; potentiation, % (no concentration beside the values); DiscoveRx D2 beta-arrestin cells, luminescence, 90 min; 100% = 57 uM dopamine signal; P14416; AID 624464; 360,000 compounds, 0.23% hits; active = potentiation of 50% or more; inconclusive = 30% to 50%; inactive = 30% or less;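 further: compound concentration not given in the record; tested on top of an EC20 dose of dopamine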
# Target sequence (P14416 whole entry, looked up): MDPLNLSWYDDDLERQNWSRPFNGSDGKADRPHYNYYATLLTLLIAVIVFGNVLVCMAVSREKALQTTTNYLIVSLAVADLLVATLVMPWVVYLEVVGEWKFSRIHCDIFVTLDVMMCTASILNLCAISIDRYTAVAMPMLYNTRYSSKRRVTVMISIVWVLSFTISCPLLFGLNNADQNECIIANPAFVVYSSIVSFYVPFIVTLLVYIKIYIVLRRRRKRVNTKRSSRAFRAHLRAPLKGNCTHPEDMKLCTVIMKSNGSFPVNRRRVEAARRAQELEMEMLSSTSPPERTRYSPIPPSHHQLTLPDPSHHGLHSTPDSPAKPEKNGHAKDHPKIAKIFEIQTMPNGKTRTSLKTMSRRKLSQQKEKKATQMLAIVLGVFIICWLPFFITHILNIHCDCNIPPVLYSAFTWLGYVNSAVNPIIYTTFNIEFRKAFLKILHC
#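 PathHunter D2 cells, attached overnight at 37 deg C, received compound in DMSO plus dopamine at EC20 (50 nM final) for 90 min at 37 deg C. Beta-arrestin recruitment was read as luminescence after 1 h with detection reagent at ambient temperature.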
# Menin-MLL FL inh – displaces fluorescein MLL peptide from human menin; Fluorescence polarization, fluorescein-MLL peptide displacement from menin; FP activity change, % at 61.4 µM; 290,000 tested, under 10 active; AID 1766; inconclusive = falling polarisation curve, or a change in total fluorescence; inactive = total fluorescence flat and polarisation flat or rising; no compound was filed as active; the % refers to the polarisation; negative = inhibition;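 further: % of control where 0% means no effect; inhibitors lower the polarisation; unlabelled MLL peptide was the positive control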
# gsp antag – gsp mutant antagonism; gsp-mutant cells, cAMP HTRF, 30 min; control for the full effect not named in the record; Potency, µM (doses to about 76.9 µM), for inactives: at the top dose activity change, negative = inhibition, usual class: inhibitors; 340,000 compounds, 0.4% hits; active = falling curve of any shape with a large fitted effect; inconclusive = falling curve, mostly with a smaller effect; inactive = flat or rising curve; cell line not stated here;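 further: intracellular cAMP measured with PDE inhibitor Ro 20-1724 present during compound exposure; potency means the concentration at half of the fitted maximal effect; on the % scale 0 is the no-effect control and ±100 the full control effect; nearly all actives have a fitted effect of over 65% in size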
#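 HTRF cAMP measurement after 30 min RT detection following 30 min, 37C compound treatment alongside […] (added as 300 uM solution) in G418-selected cells seeded at 2000/well and grown 16–24 h.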
# gsp agonist – agonists of gsp mutant (McCune-Albright syndrome) | gsp mutant cells, cAMP HTRF, 30 min; control for the full effect not named in the record | Potency, µM (highest dose often 76.9 µM), for inactives: at the highest dose activation (cAMP increase), usual class: activators | 340,000 compounds, 0.13% hits | AID 624287; active = well fitted activation curve with a large enough effect; inconclusive = small, poorly fitted or top-dose-only effect, or another doubt; inactive = no such curve, though single readings can be large or run the other way; cell line not stated here;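 further: phosphodiesterase inhibitor Ro 20-1724 added with compounds to block cAMP breakdown; potency means the concentration at half of the fitted maximal effect; nearly all actives have a fitted effect of over 60% in size; about a fifth of the inactives were tested at one dose only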
#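 Cells stably selected in G418 were plated at 2000/well, grown 16-24 hr, then given compounds in DMSO with the PDE inhibitor […] (300 uM solution added) for 30 min at 37C; cAMP was read by HTRF.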
# Sfp inh – blocks B. subtilis Sfp PPTase activity; Q9F4F7; Biochemical Sfp PPTase activity, qHTS; 310,000 compounds, 3.5% hits; AID 1490; Potency, µM, for inactives: max response, negative = inhibition, actives largely listed as inhibitors; active means well fitted inhibition curve with a large enough effect; inconclusive means small, poorly fitted or top-dose-only effect, or another doubt; inactive means no such curve, though single readings can be large or run the other way;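 further: the enzyme is Sfp with the accession as filed and its product quenches rhodamine fluorescence; potency means the concentration at half of the fitted maximal effect; 0% = enzyme reaction without inhibitor and -100% = no enzyme wells; top concentration of the series not given in the record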
#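 Reaction rates are the 30-min fluorescence difference (ex 525, em 598 nm) in wells containing 15 nM Sfp, 5 uM rhodamine-CoA and 12.5 uM BHQ-2-YbbR at pH 7.6 with 10 mM MgCl2.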
# ClpP mod – qHTS Assay for Activators of ClpP. ATP-dependent Clp protease proteolytic subunit (Bacillus subtilis (strain 168)), P80244. purified B. subtilis ClpP, FRET peptide cleavage, 20 min. Potency, µM (highest dose often 57.5 µM), without a hit: at the highest dose activity change, negative = active. 340,000 compounds, 1.9% hits. AID 651965, 2013; active = well fitted falling curve with a large enough effect; inconclusive = small, poorly fitted or top-dose-only effect; inactive = no such curve, though single readings can be large or run the other way; further: potency means the concentration at half of the fitted maximal effect; the source files actives as falling curves though it sought activators and does not explain the sign; nearly all actives have a fitted effect of over 65% in size; many hits overshoot -100%
# Target sequence (P80244 whole entry, looked up): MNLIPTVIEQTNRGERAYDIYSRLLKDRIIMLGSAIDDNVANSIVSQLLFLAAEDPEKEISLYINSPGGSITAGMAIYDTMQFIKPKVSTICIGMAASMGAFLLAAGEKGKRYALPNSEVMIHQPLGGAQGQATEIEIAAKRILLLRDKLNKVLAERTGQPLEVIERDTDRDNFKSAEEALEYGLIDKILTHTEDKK
#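 ClpP 10 microg/mL final, pH 8 Tris/KCl buffer with BSA, glycerol, Tween-20; compound pinned in; FRET-FV substrate; RT 20 min; Ex320/Em430; ΔFRET vs ADEP 5.8 microM, DMSO, no enzyme.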
# TRPV1 PAM – enhances activation of the human vanilloid receptor TRPV1. AID 540277. TRPV1-expressing cells, Fluo-8 calcium influx, capsaicin EC20 potentiation; host cell line not named in the record; control for the full effect not named in the record. potentiation, % at 8.33 µM. 320,000 compounds, 0.02% hits; active means potentiation above 80%; inconclusive means 30% to 80%; inactive means below 30%; further: 0% is about no effect
#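 Cells expressing TRPV1 were dye-loaded with Fluo-8 and read kinetically: 10 s baseline, 3 min after compound (agonist portion), then 2 min after EC20 capsaicin (allosteric enhancer portion). Calcium-bound dye fluorescence at 480/520 nm.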
# Numbers without * were called inactive; u = inconclusive; x = not tested or not shown; [ ] = another dose, or the depositor's remark.
# Each structure is followed by: D2 PAM, Menin-MLL FL inh, gsp antag, gsp agonist, Sfp inh, ClpP mod, TRPV1 PAM
- CCc1nnc(SCc2ccc(CSc3nnc(CC)n3N)cc2)n1N
    8, 2.1, 14%, -20%, 5%, 0.8%, 21
- Brc1ccc(COc2cccc3cccnc23)cc1
    -6, x, 4%, -16%, x, -9.3%, x
- O=C(CCNC(=O)c1ccccc1Cl)Nc1ccc(Br)c(C(F)(F)F)c1
    -9, 7.2, -2%, -42%[inhibitor], 3%, -0.9%, 21
- CCOC(=O)CNC(=O)/C=C/c1c(Cl)cccc1Cl
    -13, 3.3, 4%, 1%, 6%, -1.6%, -1
- CC(C)OC(=O)c1cccc2c1C(=O)c1ccccc1-2
    2, -1.1, 2%, -29%, -12%, x, -13
- Cc1[nH]n(-c2ccccc2)c(=O)c1/C=N/c1ccccn1
    -1, 5.0, -3%, -25%, 16%, -1.1%, 5
- Cc1cc2oc(=O)cc(CN3CCN(S(=O)(=O)c4cccs4)CC3)c2cc1C(C)C
    -11, 8.8, -4%, 9%, -11%, -6.9%, -4
- CCOC(=O)c1[nH]c(C)c(C(=O)N(CC)CC)c1C
    0, 5.6, 1%, u, 11%, 0.5%, -14
- O=S(=O)(c1cccc(-c2nc3ccccc3s2)c1)N1CCCC1
    -11, 1.8, -18%, -2%, -16%, -23%, -1
- CCOc1ccc(OCCC(=O)OCC(=O)NCc2ccc(Cl)cc2)cc1
    -3, x, -2%, -2%[15.4 µM], x, -4.2%, -3
- O=C(Nc1ccc(NC(=O)N2CCN(c3ccccc3O)CC2)cc1)N1CCN(c2ccccc2O)CC1
    2, 3.5, -1%, u, 12%, x, 12
- Cc1cc(C)n(-c2ccc(C(=O)OCC(=O)NCc3ccc(F)cc3)cc2)n1
    -7, 3.6, 5%, -3%[15.4 µM], 5%, -4.1%, 10
- Cc1cccc(C(O)c2cnc(C)n2Cc2ccccc2)c1 (stereo unspecified)
    -20, x, x, 7%, x, 2.6%, x
- CCn1cc(C(=O)NN)c(=O)c2cc(F)c(NC3CCCCC3)cc21
    -1, -1.8, 0%, 2%, 8%, 3.9%, 21
- CC1C(=O)N(Cc2cn(CCC3OCCO3)nn2)CCS(=O)(=O)N1Cc1ccc(-c2cccc(N(C)C)c2)cc1 (stereo unspecified)
    -2, x, x, -73%[inhibitor], x, 4.0%, x
- COCc1c(C(=O)OCC(=O)NCCc2ccc(S(N)(=O)=O)cc2)oc2ccccc12
    -4, x, -5%, -28%, x, u, -21
- COc1cccc2c1OC[C@@H](CO)[C@H]2N(C)C(=O)Nc1ccc(Cl)cc1
    -5, 4.4, -18%, -4%, 1%, 0.5%, x
- CCOC(=O)c1cc(CO)cc(C(=O)OCC)c1
    -7, -1.5, 0%, -2%[15.4 µM], 12%, -20%, -6
- C[C@@H]1CN([C@@H](C)CO)C(=O)c2cc(NS(=O)(=O)c3ccc(Cl)cc3)ccc2O[C@H]1CN(C)Cc1ccncc1
    -14, x, -12%, x, x, -0.8%, x
- COc1ccc(CNC(=O)c2ccc(N3CCC4(CC3)CC(c3ccc(Cl)cc3)=NO4)c(NC(=O)c3ccccc3)c2)cc1
    -5, x, 2%, -42%[inhibitor], x, -29%, x
- Cc1noc(C)c1COc1ccc(C(=O)NCCc2ccc(S(N)(=O)=O)cc2)cc1
    12, x, 0%, -20%[15.4 µM], x, x, -3
- Fc1cccc(Cl)c1/C=N/n1c(-c2cccnc2)n[nH]c1=S
    -2, 2.0, u, -22%, 12%, 1.5%, -11
- Brc1ccc(CSc2nnc(Cc3c[nH]c4ccccc34)o2)cc1
    -10, 2.7, 1%, -37%, 4%, 0.6%, -9
- Cc1ccc(-c2noc(CCC(=O)N(C)c3ccccc3C)n2)cc1
    -5, 4.2, -6%, -45%[inhibitor], 50µM*, 0.9%, 9
- Cc1ccc(NC(=O)CS(=O)CC(=O)Nc2cccc(C)c2C)cc1F (stereo unspecified)
    -6, 2.6, 4%, u, 10%, -0.4%, -8
- CCCn1nnnc1SCC(=O)N1CCCc2ccccc21
    -5, 0.9, 11%, u, 9%, -1.0%, -13
- Cc1ccc(C)c(NC(=O)c2nc(-c3ccccc3)n(-c3ccccc3)n2)c1
    -18, 3.8, u, -3%, -22%, -4.7%, -4
- CC1CCc2c(sc(NC(=O)c3ccco3)c2C(=O)O)C1 (stereo unspecified)
    -7, -21, -24%, 15%[15.4 µM], 3%, x, -6
- O=C(Nc1ccccc1Cl)c1ccccc1Oc1ccc(C(F)(F)F)cc1[N+](=O)[O-]
    -7, 0.7, -4%, u, 15%, 1.1%, 3
- CCCCn1c(N)c(N(Cc2ccccc2OC)C(=O)COc2ccc(F)cc2Cl)c(=O)[nH]c1=O
    -8, -0.3, 12%, -18%, 7%, -3.0%, -21
- Cc1cc(C)c(C)c(S(=O)(=O)N2CCN(CC(=O)Nc3ccc([N+](=O)[O-])cc3)CC2)c1C
    -4, -2.5, -10%, -3%, -3%, 2.1%, 5
- O=C(NCc1ccccc1CN1CCCCC1)c1ccc(Cl)cc1N1CCCC1=O
    -5, x, 10%, -9%, x, -1.6%, -7
- COc1cc2c(cc1OC)C(/C(C#N)=N\O)=NC(C)(C)C2
    -18, -0.2, 5%, -6%, 1%, -0.8%, 3
- O=C1CCCN1CCC1CCCCN1Cc1nc(COc2ccccc2)no1 (stereo unspecified)
    -10, -3.5, -8%, -6%[15.4 µM], 11%, x, 11
- c1cc2nnnn2nc1N1CCCCC1
    -15, -0.3, 5%, u, 2%, 0.2%, 7
- CNC(=O)Nc1cccc(NC(=O)NC)n1
    7, -1.8, 7%, 2%, 11%, -13%, -10
- CCn1c(CSc2nc3ccccc3s2)n[nH]c1=S
    -1, 1.1, -22%, 33%, 1%, 1.1%, -8
- Cc1c(-n2c(SCC(=O)NC(C)C(C)C)nc3ccccc3c2=O)c(=O)n(-c2ccccc2)n1C (stereo unspecified)
    -4, 0.7, -2%, u, 23%, x, 7
- COc1ccc(CNC(=O)CN(C(=O)CCC(=O)Nc2nccs2)c2ccccc2C)cc1
    -5, x, -18%, 18%[15.4 µM], 9%, x, 2
- O=C1C2CCCN2c2ccc(S(=O)(=O)N3CCOCC3)cc2N1Cc1ccccc1F (stereo unspecified)
    -7, -1.5, -13%, -12%, 15%, -9.3%, -10
- O=C(c1cccs1)N(c1ccc(Br)cc1)C1C=CS(=O)(=O)C1 (stereo unspecified)
    -3, -0.1, -14%, -105%[inhibitor], 10%, -3.3%, 7
- COc1ccc(C(=O)N2CCCCCC2)cc1OC1CCN(C(C)C)CC1
    -19, x, 9%, 0%[15.4 µM], 11%, 1.0%, 2
- Cc1cc(-c2c(C)n([O-])c(C)c(C)[n+]2=O)ccc1F
    -3, -1.1, 18%, -2%, 9%, -0.9%, 3
- CCN(CC(=O)NCc1ccc(Cl)cc1)C(=O)c1ccc(S(=O)(=O)N(C)C)cc1
    -2, -4.7, 2%, 0%[15.4 µM], 26%, 1.0%, 10
- Cc1ccnc(NC(=O)CCC(=O)N(CC(=O)NC(C)(C)C)c2ccc3c(c2)OCCO3)c1
    -5, -2.8, 7%, -42%, 20%, x, 4
- CCCn1ccc(O)c(Cc2ccc(Cl)cc2)c1=O
    1, 3.6, 0%, -17%, 8%, x, -3
- COC(=O)C1CCN(C(=O)C(C)Oc2ccc(Cl)cc2Cl)CC1 (stereo unspecified)
    -5, 3.3, -14%, -23%, -13%, -0.2%, 5
- Cc1ncc([N+](=O)[O-])n1CC(=O)Nc1ccc(F)cc1F
    -5, -6.6, -3%, -4%[15.4 µM], 21%, 0.7%, 30
- CC1CN(C(C)C(=O)NNC(=O)c2ccc(F)cc2)CC(C)O1 (stereo unspecified)
    -5, x, 10%, -6%, x, x, x
- CCC(Sc1nnc(C)s1)C(=O)Nc1nccs1 (stereo unspecified)
    -6, 4.6, 1%, -2%, 3%, 0.2%, 6
- Cc1ccnc(SCC(=O)N2CCN(c3cccc(Cl)c3)CC2)n1
    -7, 5.0, -7%, 21%, -6%, -0.7%, -21
- COC(=O)Nc1nnc(-c2ccc(OC)cc2)s1
    3, -2.6, -4%, 14%[15.4 µM], 14%, x, -6
- COc1ccc(CCC(=O)Nc2cccc(S(=O)(=O)N3CCCC3)c2)cc1OC
    1, x, -13%, u, x, -1.7%, 9
- Cc1c2ccccc2nc2c(F)c(N(C)C)c(F)c(F)c12
    -5, u, 10%, 25%, -14%, -1.8%, -21
- COc1ccc(Nc2oc(COc3ccc(OC)cc3)nc2C#N)cc1
    5, 3.9, -41%, -3%, -6%, -3.2%, -6
- COc1ccc(C(=O)C2CCN(C(=O)c3ccc(C)cc3)CC2)cc1
    -1, 2.3, -23%, u, -2%, 0.2%, 11
- O=C1NC[C@H](c2ccccc2)OC(=O)[C@H](Cc2ccc(F)cc2)CC/C=C/C[C@@H]1CC(=O)N(CCO)Cc1ccccc1
    -2, x, -18%, -57%[inhibitor], x, -1.8%, x
- C[C@@H]1CN([C@H](C)CO)C(=O)CCCn2nncc2CO[C@H]1CN(C)C(=O)C1CCCCC1
    -4, x, x, -36%[inhibitor], x, -3.3%, x
- O=C(Nc1nc(-c2ccccn2)cs1)C1CC1
    -9, -1.6, 3%, -30%[inhibitor], -12%, -12%, -15
- CNC(=O)CC(CC(=O)c1ccccc1)c1ccccc1 (stereo unspecified)
    -6, x, 7%, 13%, x, 0.8%, -9

# (cont.)
# Each structure is followed by: D2 PAM, Menin-MLL FL inh, gsp antag, gsp agonist, Sfp inh, ClpP mod, TRPV1 PAM
- CC1(C)CC(=O)C=C(NC2CCCCCCC2)C1
    26, -0.2, -10%, 1%, 32%[activator], -1.4%, -7
- O=C(C1CCC1)N1CCN(S(=O)(=O)c2cc(F)ccc2F)CC1
    28, x, 5%, -28%, x, 0.9%, 1
- CCOC(=O)C1=C(C)N=c2s/c(=C\c3cc(OC)c(OC)c(OC)c3)c(=O)n2C1/C=C/c1ccccc1 (stereo unspecified)
    -28, 4.4, 23%, -67%[inhibitor], 5%, 2.1%, -2
- Cc1cc(=O)oc(C)c1C(=O)OCC(=O)c1ccccc1
    -10, 4.0, 1%, 16%, 9%, -0.4%, -9
- CC(C)Cc1nnc(NC(=O)CCc2ccccc2)s1
    -12, -0.2, 8%, -12%, u, -0.4%, 3

# High-throughput results deposited in PubChem by National Center for Advancing Translational Sciences (NCATS).
